HPGD inh: inhibitors of human 15-hydroxyprostaglandin dehydrogenase (HPGD); P15428; Potency, µM, for the others: at the top dose activity change, negative = inhibition, usual class: inhibitors; purified HPGD, NADH fluorescence kinetic, PGE2 substrate; 150,000 compounds, 4.3% hits; active = well fitted inhibition curve with a large enough effect (not every such curve was filed as active); inconclusive = small, poorly fitted or top-dose-only effect, or another doubt; inactive = no such curve, though single readings can be large or run the other way;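 also: top concentration of the series not given in the record; plate controls included wells without enzyme; inactives centre near -10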
Target sequence (P15428 whole entry, looked up): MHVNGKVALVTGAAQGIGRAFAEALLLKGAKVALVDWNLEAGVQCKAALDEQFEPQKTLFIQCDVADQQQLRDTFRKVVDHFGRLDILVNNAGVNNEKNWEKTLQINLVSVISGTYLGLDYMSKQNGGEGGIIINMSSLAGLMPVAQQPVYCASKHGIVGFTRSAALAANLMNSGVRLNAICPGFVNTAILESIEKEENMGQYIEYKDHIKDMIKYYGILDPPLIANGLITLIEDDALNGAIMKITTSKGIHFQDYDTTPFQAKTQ
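20 nM HPGD preincubated 15 min at room temperature with compound in 50 mM Tris-HCl pH 8, 0.01% Tween 20. Started with 1 mM NAD+ and 30 uM prostaglandin E2; NADH fluorescence (360/450 nm) read 5 times over 30-s intervals, last minus first.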
Starred values were filed as active, the others as inactive; ? = inconclusive. % is scaled to controls: 0 for no effect and ±100 for the full control effect; potency is read from the fitted curve at half-maximal effect. An excerpt, so the mix of outcomes need not match the whole.

smiles	HPGD inh
CCOC(=O)N1CCN(c2nc(-c3ccc(Cl)cc3)cs2)CC1	-10%
Nc1cc(Cl)ccc1C(=O)OCC(=O)NC1CCS(=O)(=O)C1 (stereo unspecified)	?
CN(C)c1ccnc(Oc2ccc(C(C)(C)C)cc2)c1C#N	35µM*
O=C(O)CCCCn1c(SCc2cc(=O)n3cc(Cl)ccc3n2)nc2ccsc2c1=O	?
CCOC(=O)c1cccnc1SCC(=O)N(CC)c1cccc(C)c1	0%
CC(C)(C)NC(=O)CSc1nncn1NCc1ccccc1	-10%
O=C(NNC(=O)c1cccs1)c1ccc(Cl)c([N+](=O)[O-])c1	-4%
O=C(O)C1C2C=CC(C2)C1C(=O)Nc1cccc(C(=O)N2CCCCC2)c1 (stereo unspecified)	?
COc1ccccc1CNCc1ccc(OC)c(OC)c1OC	-13%
O=CN1CCN(C(=O)c2ccc([N+](=O)[O-])cc2)CC1	-4%
CCOc1ccc(C2c3cc(OC)c(OC)cc3CC(=O)N2c2ccccc2)cc1 (stereo unspecified)	-1%
Nc1nc2ccc(O)cc2s1	-4%
Cc1cc(C)nc(SCC(=O)c2c(N)n(C)c(=O)n(C)c2=O)n1	-8%
COc1ccc(/C(O)=C/C(=O)C(=O)Nc2c(C)n(C)n(-c3ccccc3)c2=O)cc1	-19%
CC1=Nc2ccccc2/C1=C\c1nc(-c2ccc(C(F)(F)F)cc2)oc1O	-7%
c1ccc(CNc2ncnc3c2cnn3Cc2ccccc2)cc1	?
Cc1ccc(NC(=S)NNC(=O)c2ccc(N3CCOCC3)c([N+](=O)[O-])c2)cc1C	-13%
CCOC(=O)COc1ccc2nsnc2c1Cl	?
CCOc1cc(S(=O)(=O)Nc2cc(C)cc(C)c2)ccc1Cl	-23%
COC(=O)c1cc2c(C)nn(-c3ccccc3)c2s1	?
CCc1ccc(CN/C=C/C(=O)c2ccc(Br)cc2)cc1	-15%
COc1ccc(S(=O)(=O)Nc2ccc(O)c(Sc3ncn[nH]3)c2)cc1	-23%
Cc1ccc(CSCCNC(=O)c2ccc(N(C)S(=O)(=O)c3ccccc3)cc2)cc1	-10%
O=C(O)c1cccc(Cn2cccn2)c1	-9%
Cc1ccc2nc(SCC(=O)Nc3ccc(F)c([N+](=O)[O-])c3)[nH]c2c1	-29%
Cc1ccc(CN(c2ccc(C(=O)Nc3cccnc3)cc2)S(C)(=O)=O)cc1	-2%
COC(=O)c1ccccc1NC(=O)CCNC(=O)Cn1cnc2ccccc2c1=O	-13%
Cc1csc(SC(C)C(=O)Nc2ccc(S(=O)(=O)N3CCCC3)cc2)n1 (stereo unspecified)	-2%
COc1ccc(CC(=O)NC2CC(C)(C)NC(C)(C)C2)cc1	-9%
CCn1c2c(c3ccc(OC)cc31)CCCC2=O	-26%
Nc1nc2c(ncn2[C@@H]2O[C@H](CO)[C@@H](O)[C@H]2O)c(=O)[nH]1	-1%
CCCc1ccc(-c2cc(NC(=O)CSc3n[nH]c(N)n3)n(-c3ccccc3)n2)cc1	-5%
O=C(OCc1nc2ccccc2s1)c1cccc(S(=O)(=O)N2CCOCC2)c1	-18%
CCOC(=O)c1sc(NC(=O)c2ccc(S(=O)(=O)N3CCOCC3)cc2)cc1C	-12%
CSc1nnc(-c2sc3cc(Cl)ccc3c2Cl)n1C	-18%
CCOC(=O)CC12CN3CN(C1)CC(CC(=O)OCC)(C3)C2=O	3%
COc1ccc2c(=O)c3c(=O)n(Cc4ccco4)c(-c4ccc(C)cc4)nc3oc2c1	-8%
CCNc1ccc(C(=O)N/N=C/c2c(C)nn(-c3ccccc3)c2N2CCCC2)cc1[N+](=O)[O-]	-7%
COc1ccc(NC(=O)CC2C(=O)N(C)C(=S)N2Cc2cccs2)cc1 (stereo unspecified)	-2%
Cc1cc(C)nc(N(C#N)C(C)C(=O)N(C)C)n1 (stereo unspecified)	1%
CCCn1c(SCC(=O)N2CCc3ccccc32)nnc1-c1ccco1	-13%
CS(=O)(=O)N(CC(=O)NCc1ccncc1)c1cc(Cl)cc(Cl)c1	1%
CCOC(=O)c1ccccc1NC(=O)CC1SC(=NC)N(C)C1=O (stereo unspecified)	-6%
O=C(NCc1ccc(Cl)cc1)c1cccc(NC(=O)c2ccccc2)c1	?
C=CCNC(=S)Nc1cc(S(=O)(=O)N2CCOCC2)ccc1-n1cncn1	-11%
CC(=O)Nc1ccc(S(=O)(=O)N(CC(=O)O)Cc2ccccc2)cc1	0%
Cc1sc2ncnc(Nc3ccccc3)c2c1C	?
Cc1nn(-c2ccccc2)c(C)c1C(=O)OCC(=O)NC(=O)NC1CCCCC1	-14%
CCCC(=O)Nc1nc2nc(-c3ccccc3)cc(-c3ccccc3)n2n1	?
CCOC(=O)COc1ccc2c(c1)C(=O)CC(C)(C)O2	?

(list continues)
smiles	HPGD inh
O=C(N/N=C/C=C/c1ccc(Br)cc1)C(O)c1ccccc1 (stereo unspecified)	-2%
CCOCCCNC(=O)CCNS(=O)(=O)c1ccc(C)cc1	-1%
COc1ccc(NC(=O)CSc2nc3c(c(-c4cccs4)c2C#N)CN(C)CC3)cc1OC	-15%
Cn1nc([N+](=O)[O-])nc1Oc1ccccc1N	1%
N#Cc1c2nc3ccccc3nc2n2cc(NC(=O)c3ccc(F)cc3)ccc12	?
CS(=O)(=O)Oc1ccccc1/C=C1/N=C(c2ccc(F)cc2)OC1=O	-7%
CCn1c(=O)cc(OCC(=O)NCc2ccco2)c2ccccc21	-25%
CNC(=O)CSc1nnc(-c2cc(C)cc(C)c2)o1	-10%
CCCCC/C=C\C[C@H](O)/C=C/c1cccc(C[C@H](O)CCCCO)n1	-9%
COc1ccc(OC)c(C(c2nnnn2Cc2ccccc2)N2CCN(C3CCCCC3)CC2)c1 (stereo unspecified)	-8%
CCc1nc(NCC2CCCO2)c2oc3ccccc3c2n1 (stereo unspecified)	-14%
Cc1cc(C)c(C#N)c(SCC(O)CS(=O)(=O)Cc2ccccc2)n1 (stereo unspecified)	-18%
CCOc1cc(N2CCOCC2)c(OCC)cc1NC(=O)CC12CC3CC(CC(C3)C1)C2	-16%
Cc1[nH]c2ccccc2c1SCC(=O)N1CCOCC1	-9%
Cc1ccc(NC(=O)c2ccc(-n3cccn3)c([N+](=O)[O-])c2)cc1C	-4%
N#Cc1cc2c(N)c(C(=O)Nc3ccccc3)sc2nc1N	-7%
Cc1cc(C(=O)CSc2n[nH]c(N)n2)c(C)n1-c1cc(F)ccc1F	-14%
CCOC(=O)C1=C(Nc2ccc(Br)cc2)CC(C)(O)C(C(=O)OCC)C1c1ccccc1 (stereo unspecified)	-27%
CCOc1nc(NCc2ccco2)nc(Nc2ccccc2F)n1	-14%
O=C(O/N=C\c1ccc(N2CCOCC2)c([N+](=O)[O-])c1)c1ccc(F)cc1	-5%
c1ccc2c(-c3nc4ncccc4o3)cccc2c1	?
COc1ccc2nc3ccccc3nc2c1NC(=O)c1ccc(Cl)cc1	-16%
Nc1nc(SCC(=O)c2cccc([N+](=O)[O-])c2)n[nH]1	-10%
COC(=O)c1nc(C(=O)OC)c(C(=O)OC)nc1C(=O)OC	-3%
CC1(C)Oc2ccc3ccc(=O)oc3c2/C(=C/Nc2ccccn2)C1=O	-24%

Not a retest: an excerpt of the list.
smiles	HPGD inh
CCn1c2c(c3ccc(OC)cc31)CCCC2=O	-26%
Nc1nc2c(ncn2[C@@H]2O[C@H](CO)[C@@H](O)[C@H]2O)c(=O)[nH]1	-1%
CCCc1ccc(-c2cc(NC(=O)CSc3n[nH]c(N)n3)n(-c3ccccc3)n2)cc1	-5%

Continuation.
mol: S=C(NCc1ccco1)Nc1ccc(Cl)cc1
- HPGD inh: 18µM*
mol: O=C(Nc1ccc(CCC(=O)N2CCCC2)cc1)c1ncn[nH]1
- HPGD inh: 28µM*
mol: COc1ccc2cc(C3CC(c4ccco4)=NN3S(=O)(=O)c3ccccc3)c(Cl)nc2c1 (stereo unspecified)
- HPGD inh: -8%
mol: Cc1cnc(NC(=O)CSc2nnc(-c3ccccc3)n2Cc2ccccc2)s1
- HPGD inh: -10%
mol: COCCNS(=O)(=O)c1cccn1-c1ncc(C(F)(F)F)cc1Cl
- HPGD inh: -10%
mol: COc1ccc(CCNS(=O)(=O)c2ccc3c(c2)OCCO3)cc1OC
- HPGD inh: 1%
mol: COc1ccc(CCN2C(=S)NC3CC2(C)Oc2ccc([N+](=O)[O-])cc23)cc1OC (stereo unspecified)
- HPGD inh: -20%
mol: CC(C)CC(=O)c1c[nH]c(C(=O)NCc2cccs2)c1
- HPGD inh: -6%
mol: O=S(=O)(Nc1nc2ccccc2nc1-[n+]1ccccc1)c1ccc(Cl)cc1
- HPGD inh: -2%
mol: Cc1ccc(O)c(C(=O)c2cnc3onc(-c4ccc(F)cc4)c3c2)c1
- HPGD inh: 13µM*
mol: O=C(NC(NC1CCS(=O)(=O)C1)C(=O)c1cccs1)c1ccccc1 (stereo unspecified)
- HPGD inh: -11%
mol: CCOC(=O)/C(C#N)=C(\N)C(C)C(=O)Nc1ccccn1 (stereo unspecified)
- HPGD inh: -1%
mol: CCOc1ccc(-n2c(=O)cc(N3CCN(c4ccc(F)cc4)CC3)[nH]c2=O)cc1
- HPGD inh: -5%
mol: O=C(Nc1nc(-c2ccc(F)cc2)cs1)c1cnccn1
- HPGD inh: -2%
mol: Cc1ccc2nc(-c3ccccc3O)c(Nc3ccc4c(c3)OCCO4)n2c1
- HPGD inh: ?

mol: c1coc(CNc2c3c(nc4ncnn24)CCC3)c1
- HPGD inh: ?
mol: COc1ccc(-n2c(O)cnc2Nc2nc(C)cc(C)n2)cc1OC
- HPGD inh: -23%
mol: O=C(c1ccncc1)N1CCC2(CCCN(c3ccccn3)C2)CC1
- HPGD inh: ?
mol: Nc1nnc(SCC(=O)Nc2sc3c(c2C(=O)c2ccccc2)CCCC3)s1
- HPGD inh: -20%
mol: COc1cccc(C(=O)NCCCN2CCN(CCCNC(=O)c3cccc(OC)c3)CC2)c1
- HPGD inh: 2%
mol: Cc1ccc(S(=O)(=O)N2CC3CCC2C3)cc1 (stereo unspecified)
- HPGD inh: -12%
mol: CC[C@@H]1Cc2cc(O)ccc2C2=C1c1ccc(O)cc1C[C@H]2CC
- HPGD inh: ?
mol: COC(=O)C1=C(C)NC(C)=C(C(=O)OCCN(C)Cc2ccccc2)[C@H]1c1cccc([N+](=O)[O-])c1
- HPGD inh: -4%
mol: CC(=O)c1cccc(NC(=O)c2cc(-c3ccc(C)cc3)on2)c1
- HPGD inh: -12%
mol: Cc1ccccc1Cn1c(=O)n(CC2CCC(C(=O)NCCc3ccccc3)CC2)c(=O)c2ccccc21 (stereo unspecified)
- HPGD inh: -23%
mol: CCCNC(=O)c1cc(-c2ccc(OC)cc2)n(CCCOC)c1C
- HPGD inh: 8.9µM*
mol: COc1cc2c(cc1OC)-c1nnc(-c3ccco3)n1C1(CCCC1)C2
- HPGD inh: ?
mol: Cc1ccc2oc(=O)c3cnn(CC(=O)NC4CCCCC4C)c3c2c1 (stereo unspecified)
- HPGD inh: -7%
mol: CN1CCN(C(=O)/C(=C/c2ccccc2)c2ccccc2)CC1
- HPGD inh: 13µM*
mol: c1csc(-c2noc(COc3ccc4c(c3)CCCC4)n2)c1
- HPGD inh: -25%

mol: Cc1ccc(CSc2nnc(-c3ccncc3)n2CC2CCCO2)cc1 (stereo unspecified)
- HPGD inh: -3%
mol: CCC(=O)Nc1ncnc2ncn(C(=O)CC)c12
- HPGD inh: -12%
mol: CCCOc1ccc(C(=O)NCCC(=O)NCCCC(=O)OCC)cc1
- HPGD inh: -8%
mol: Cc1cc(C(=O)COC(=O)CCC(=O)c2ccc3c(c2)OCCO3)c(C)n1Cc1ccco1
- HPGD inh: -19%
mol: Nc1nc2c(nc(Br)n2C2OC(CO)C(O)C2O)c(=O)[nH]1 (stereo unspecified)
- HPGD inh: -6%
mol: O=C(CSc1nc2ccccc2o1)NCc1ccc2c(c1)OCO2
- HPGD inh: -15%
mol: O=C1/C(=C/c2cccs2)CCc2ccccc21
- HPGD inh: -23%
mol: CSc1nc2ccc(NC(=O)c3nn(C(C)C)c(=O)c4ccccc34)cc2s1
- HPGD inh: -19%
mol: CCCCN(C)C(=O)CCC(=O)NNc1nc2ccccc2c2nc(C)nn12
- HPGD inh: -4%
mol: COCc1c(Br)c(C)[nH]c(=O)c1C#N
- HPGD inh: ?
mol: O=C(CNC(=O)C1CCCCC1)Nc1ccccc1Cl
- HPGD inh: -9%
mol: O=C(CSc1nnc(Cc2cccs2)n1-c1ccccc1)NC1CCCCC1
- HPGD inh: -18%
mol: CCCN1CCN(CCCNC(=O)Cn2nc(-c3ccc(Cl)cc3)ccc2=O)CC1
- HPGD inh: -1%
mol: O=S(=O)(c1ccc(Cl)cc1)N1CCN(c2ccc(N3CCOCC3)nn2)CC1
- HPGD inh: -15%
mol: O=C(CSc1nc(O)cc(=O)[nH]1)C1CC1
- HPGD inh: 18µM*
mol: Cc1nn(-c2ccccc2)c(OC(=O)c2cccs2)c1S(=O)(=O)c1ccc([N+](=O)[O-])cc1
- HPGD inh: -15%
mol: CN(c1ccc(Cl)cc1)c1cc(=O)n(C)c2ccccc12
- HPGD inh: 7.9µM*

Among those listed so far, these have a COOH group.
mol: O=C(O)CCCCn1c(SCc2cc(=O)n3cc(Cl)ccc3n2)nc2ccsc2c1=O
- HPGD inh: ?
mol: O=C(O)C1C2C=CC(C2)C1C(=O)Nc1cccc(C(=O)N2CCCCC2)c1 (stereo unspecified)
- HPGD inh: ?
mol: O=C(O)c1cccc(Cn2cccn2)c1
- HPGD inh: -9%
mol: CC(=O)Nc1ccc(S(=O)(=O)N(CC(=O)O)Cc2ccccc2)cc1
- HPGD inh: 0%

3 entries from above, ordered by molar mass, lowest first.
mol: O=C(O)c1cccc(Cn2cccn2)c1
- HPGD inh: -9%
mol: Cc1ccc(NC(=O)c2ccc(-n3cccn3)c([N+](=O)[O-])c2)cc1C
- HPGD inh: -4%
mol: Cc1ccc(CN(c2ccc(C(=O)Nc3cccnc3)cc2)S(C)(=O)=O)cc1
- HPGD inh: -2%
